Screens: PubChem BioAssay, several laboratories
HNF4A DNA FP: change in binding of human HNF4A to DNA, primary screen, biochemical, fluorescence polarization, FITC-DNA | Hepatocyte nuclear factor 4-alpha (Homo sapiens), P41235 | 1 h | activity change, % at 10 µM | AID 1224865, 2016 | 0.3% of 360,000 active; in the data active = activity change above about 30%, passing the limit was not always enough;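 note: controls were the assay level and a saturating level of protein; the project sought stronger binding though the title names inhibitors; some compounds called inactive have numbers as strong as hits; positive values seem to mean higher polarization but the record does not say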
UCH37 DUB inh: inhibitors of human UCH37 deubiquitinase, primary screen, biochemical, Ub-AMC cleavage, fluorescence. inhibition, % (test concentration not listed). 0.33% of 330,000 active. purified proteasome/UCH37;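 active = mean of two replicates above 20%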;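 note: 0% = compound-free wells with enzyme and 100% = wells lacking proteasome; stock transfer was 100 nL into about 20 µL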
Target sequence (Q9Y5K5 whole entry, looked up): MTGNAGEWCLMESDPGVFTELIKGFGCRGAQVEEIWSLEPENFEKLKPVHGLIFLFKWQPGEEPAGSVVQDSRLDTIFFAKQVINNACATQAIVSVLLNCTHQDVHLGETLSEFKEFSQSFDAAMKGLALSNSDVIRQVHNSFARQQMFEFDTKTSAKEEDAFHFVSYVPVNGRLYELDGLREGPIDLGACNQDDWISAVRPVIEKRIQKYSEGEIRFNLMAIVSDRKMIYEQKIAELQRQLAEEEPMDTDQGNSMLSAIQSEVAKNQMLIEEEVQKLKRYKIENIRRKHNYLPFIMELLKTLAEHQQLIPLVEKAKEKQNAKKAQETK
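Test system – human UCH37 enzyme supplied as purified proteasome complex · Incubation – 30 min preincubation with enzyme, 25 min cleavage at room temperature · Detection – AMC fluorescence from Ub-AMC cleavage, excitation 355 nm, emission 460 nm · Benchmarks – no-proteasome wells (full inhibition) and compound-free wells (no inhibition)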
Ecoli rRNA inh: reduced GFP signal of wild-type E. coli, primary screen, bacterial rRNA inhibitor project, GFP/RFP fluorescence, OD600, single point. E. coli WT GFP vs humanized-ribosome RFP mutants, 24 h; hits give low values; DMSO median 0, no signal -100. GFP signal change (wild-type ribosome), % (test concentration not listed). 1.6% of 350,000 active. AID 720706, 2013;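 active = significant combined selectivity score with lowered wild-type GFP, culture density cut under 30%, mutant RFP and density less affected; inactive = any of these conditions unmet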; note: one replicate is shown; some compounds called inactive have numbers as strong as hits
Ecoli growth: E. coli growth inhibition, primary screen, OD600; Escherichia coli growth, 23 h; hits give low values; OD600 absorbance (test concentration not listed); 0.21% of 330,000 active;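 active = OD600 absorbance below the run mean of sample wells minus 3.6 SD, in any replicate, cut at about 0.56 in these data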;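 note: stock transfer was 300 nL into about 60 µL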
FGF22 binding: binders of human FGF22 protein, primary screen, FGF22 synaptogenesis inhibitor project, biophysical, thermal shift, single point; Fibroblast growth factor 22 (Homo sapiens), Q9HCT0; recombinant FGF22 thermal shift, SYPRO orange fluorescence; percent of sucrose octasulfate shift, DMSO zero; calls only at 9.99 µM; 1.5% of 340,000 active; AID 651658, 2012;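 active = melting point raised past a set limit in the mean and every replicate; three in four hits are not shown here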
ALR inh: inhibitors of human ALR sulfhydryl oxidase, primary screen, biochemical, H2O2 detection, HRP-luminol luminescence, single point. 3.8% of 290,000 active. purified ALR, DTT oxidation. FAD-linked sulfhydryl oxidase ALR (Homo sapiens), P55789. inhibition, % (concentration not given with the values);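 active = mean and each replicate at 75% or more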;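 note: stock transfer was 7.5 nL into about 7.5 µL; 0% = neutral wells and 100% = wells with inactivated enzyme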
B2AR ag: beta2AR agonists driving receptor internalization, primary screen, cell-based, FAP fluorogen, flow cytometry. Beta-2 adrenergic receptor (Homo sapiens), P07550. response, % (concentration not given with the values). 0.43% of 340,000 active. AID 504454, 2011. Am2.2-beta2AR cells; reference of the scale not given here;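 active = response above a set limit, near 3 SD of response in nonfluorescent compounds, cut at about 42% in these data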;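 note: stock transfer was 100 nL into about 11 µL; a reference agonist was the positive control; negative values mostly stem from fluorescent compounds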
Target sequence (P07550 whole entry, looked up): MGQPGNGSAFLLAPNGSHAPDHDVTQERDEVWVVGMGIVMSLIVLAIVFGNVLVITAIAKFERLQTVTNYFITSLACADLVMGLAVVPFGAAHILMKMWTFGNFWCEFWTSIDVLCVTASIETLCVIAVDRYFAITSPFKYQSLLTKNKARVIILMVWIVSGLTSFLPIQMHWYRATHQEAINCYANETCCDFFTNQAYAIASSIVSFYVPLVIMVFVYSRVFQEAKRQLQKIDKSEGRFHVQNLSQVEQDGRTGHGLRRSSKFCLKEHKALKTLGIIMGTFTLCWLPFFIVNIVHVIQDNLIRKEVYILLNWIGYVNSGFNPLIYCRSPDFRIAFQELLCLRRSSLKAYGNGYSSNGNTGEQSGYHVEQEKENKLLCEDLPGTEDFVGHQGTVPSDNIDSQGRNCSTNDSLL
Ecoli rRNA inh OD600: second read-out of Ecoli rRNA inh, no call of its own (marks repeat the call); OD600 change, %; measured here: OD600 growth;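 optical density of the mix in the first replicate; 0 = DMSO median and -100 = no signal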
Ecoli rRNA inh RFP: further read-out of Ecoli rRNA inh, marked with its call; RFP signal change, %; measured here: RFP humanized mutant strains;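 first replicate; 0 = DMSO median and -100 = no signal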
The depositor's hits bear a star; i = inactive; / = not tested or not shown.

Results follow in this order: HNF4A DNA FP | UCH37 DUB inh | Ecoli rRNA inh | Ecoli rRNA inh OD600 | Ecoli rRNA inh RFP | Ecoli growth | FGF22 binding | ALR inh | B2AR ag
> CC1(C(=O)NS(=O)(=O)c2ccc(Cl)cc2)CCN1C(=O)C1(c2ccc(Cl)cc2)CCC1 (stereo not drawn)
    -0.5 | / | -36 | -47 | -9.6 | / | i | / | /
> COc1ccc(C(=O)Nc2cc3c(oc2=O)CCCC3=O)cc1
    -12 | 2.1 | 18 | 3 | 2.7 | 0.68 | i | 7 | 1
> CC(C)OC(=O)c1ccc(S(N)(=O)=O)o1
    0.3 | 2.8 | / | / | / | 0.69 | / | -1 | 0
> COc1cc(C#N)ccc1OCC(=O)Nc1cccc(S(=O)(=O)N(C)c2ccccc2)c1
    0.4 | / | -7 | -19 | -2.1 | / | i | / | /
> C/C(=N\NC(=O)C1=NNC(=O)C1C)c1cccs1 (stereo not drawn)
    -0.8 | / | 8 | 11 | 3.4 | / | i | / | -1
> CCCCC(O)(CCCC)C(=O)NN(C(=O)c1cccnc1Cl)c1ccccc1
    -5.0 | 4.8 | 3 | -6 | 0.9 | 0.67 | i | -18 | 1
> CCOC(=O)c1[nH]ncc1CN1CCCC(C(=O)c2ccc(SC)cc2)C1 (stereo not drawn)
    -1.2 | 3.2 | 3 | 0 | 3.0 | 0.67 | i | -6 | 1
> COc1ccc(-c2ccc(C(=O)NCc3cccs3)c3occc23)c(C)c1
    3.9 | / | 3 | -21 | -8.5 | / | i | / | /
> Cc1ccc(N=Cc2cc3c(cc2O)OC(N)=C(C#N)C3c2ccccc2)cc1 (stereo not drawn)
    22 | -4.1 | 1 | -3 | 11 | 0.7 | i | 0 | 25
> O=[N+]([O-])c1ccc(O)c(/C=N/n2cnnc2)c1
    0.9 | / | / | / | / | / | / | -4 | -2
> COc1ccc(CN2CCC3CC2c2cc(Cl)ccc23)cc1 (stereo not drawn)
    2.4 | 4.1 | -21* | -7.7* | -1.0* | 0.67 | i | / | -12
> COc1cccc(-c2ccc(=O)n(CC(=O)NCCN3CCOCC3)n2)c1
    8.1 | 0.2 | / | / | / | 0.65 | / | -5 | -6
> CC(C)CC(COCc1ccc(Cl)cc1)N1CCN(C(=O)c2cccc(C(F)(F)F)c2)CCC1=O (stereo not drawn)
    2.7 | 3.1 | -12 | -34 | 20 | 0.72 | i | -7 | -3
> CN(Cc1cccs1)c1ncnc2sccc12
    0.8 | 3.1 | / | / | / | 0.71 | / | -10 | -5
> COc1ccc(S(=O)(=O)O/N=C2\CCSc3ccc(C)cc32)cc1
    0.0 | / | / | / | / | / | / | -3 | -6
> COc1ccccc1NC(=O)Nc1ccc(S(=O)(=O)Nc2onc(C)c2C)cc1
    4.1 | -0.3 | -25 | -30 | -6.4 | 0.7 | i | / | -5
> COc1ccc(NC(=O)CN(C)C(=O)c2ccc3c(c2)OCCO3)cc1
    -0.6 | -0.1 | 7 | 14 | -1.0 | 0.62 | i | 0 | -5
> CCOc1ccc(CCNC(=O)COC(=O)C2CCN(S(=O)(=O)c3ccc(C)c(C)c3)CC2)cc1OCC
    -1.7 | 1.6 | 4 | 8 | 0.1 | 0.72 | i | -4 | 8
> Cc1cc(C(=O)OCC(=O)Nc2ccccc2[N+](=O)[O-])c2ccccc2n1
    -1.6 | 8.5 | 0 | 0 | 1.5 | 0.7 | i | 0 | 5
> O=C(c1cc(=O)c2ccccc2o1)N1CCCc2ccccc21
    -4.2 | 3.5 | -3 | -12 | -5.7 | 0.71 | / | 2 | 1
> Brc1cnc2nc(SC/C=C/c3ccccc3)[nH]c2c1
    2.0 | 2.2 | 12 | 0 | 0.5 | 0.65 | i | -15 | 0
> Cc1cc(Cl)nc(Cl)c1C(=O)NC(=O)NCCC(C)C
    5.3 | -0.6 | -4 | -3 | -0.4 | 0.69 | i | -2 | -7
> Cc1cc(-c2ccc(Br)s2)nc(-n2cccc2)n1
    50* | -2.6 | 6 | 17 | 5.3 | 0.7 | i | / | 4
> COc1ccc(N(C)C(=O)Cc2c(C(=O)O)n(C)c3ccccc23)cc1
    -0.9 | 2.9 | -1 | 7 | -1.1 | 0.68 | i | -10 | -8
> O=C1COc2ccc(C(=O)NCc3ccco3)cc2N1
    1.3 | 1.6 | 14 | 7 | -0.9 | 0.68 | i | -2 | 11
> O=C(COC(=O)c1ccco1)Nc1nnc(-c2ccccc2)o1
    -2.5 | -0.1 | -3 | -8 | -3.1 | 0.6 | i | 41 | -10
> O=C(NCc1ccc(F)cc1)c1noc2c1CCCCC2
    3.4 | 3.4 | -12 | -12 | 2.7 | 0.72 | i | / | -11
> Cc1ccc(Cl)cc1NC(=O)c1ccccc1OCC(=O)Nc1ccc(Cl)cc1
    -2.4 | -0.1 | 4 | 10 | -0.4 | 0.71 | i | -1 | 8
> NS(=O)(=O)c1ccc(CCn2c(=S)[nH]c3ccc(F)cc3c2=O)cc1
    4.4 | 2.8 | 2 | -1 | -1.2 | 0.66 | i | 9 | 25
> O=C(CCC(=O)c1ccccc1)NC1CCCN(Cc2ccccc2F)C1 (stereo not drawn)
    0.4 | 3.9 | 1 | 5 | 2.2 | 0.7 | i | 4 | 1

One compound at a time, as listed above.
Shown for CCCCC(O)(CCCC)C(=O)NN(C(=O)c1cccnc1Cl)c1ccccc1 = HNF4A DNA FP: -5.0; UCH37 DUB inh: 4.8; Ecoli rRNA inh: 3; Ecoli rRNA inh OD600: -6; Ecoli rRNA inh RFP: 0.9; Ecoli growth: 0.67; FGF22 binding: i; ALR inh: -18; B2AR ag: 1
Shown for COc1ccc(NC(=O)CN(C)C(=O)c2ccc3c(c2)OCCO3)cc1 = HNF4A DNA FP: -0.6; UCH37 DUB inh: -0.1; Ecoli rRNA inh: 7; Ecoli rRNA inh OD600: 14; Ecoli rRNA inh RFP: -1.0; Ecoli growth: 0.62; FGF22 binding: i; ALR inh: 0; B2AR ag: -5

Retrieved by structure from the entries so far:
Results follow in this order: HNF4A DNA FP | UCH37 DUB inh | Ecoli rRNA inh | Ecoli rRNA inh OD600 | Ecoli rRNA inh RFP | Ecoli growth | FGF22 binding | ALR inh | B2AR ag
> O=[N+]([O-])c1ccc(O)c(/C=N/n2cnnc2)c1
    0.9 | / | / | / | / | / | / | -4 | -2
> CC1(C(=O)NS(=O)(=O)c2ccc(Cl)cc2)CCN1C(=O)C1(c2ccc(Cl)cc2)CCC1 (stereo not drawn)
    -0.5 | / | -36 | -47 | -9.6 | / | i | / | /
> O=C1COc2ccc(C(=O)NCc3ccco3)cc2N1
    1.3 | 1.6 | 14 | 7 | -0.9 | 0.68 | i | -2 | 11
> CC(C)OC(=O)c1ccc(S(N)(=O)=O)o1
    0.3 | 2.8 | / | / | / | 0.69 | / | -1 | 0
> CCOc1ccc(CCNC(=O)COC(=O)C2CCN(S(=O)(=O)c3ccc(C)c(C)c3)CC2)cc1OCC
    -1.7 | 1.6 | 4 | 8 | 0.1 | 0.72 | i | -4 | 8

Going on with the list:
Results follow in this order: HNF4A DNA FP | UCH37 DUB inh | Ecoli rRNA inh | Ecoli rRNA inh OD600 | Ecoli rRNA inh RFP | Ecoli growth | FGF22 binding | ALR inh | B2AR ag
> COc1ccc(/C=C/C(=O)NCCCNC(=O)/C=C/c2ccc(OC)c(OC)c2)cc1OC
    2.4 | 6.7 | -11 | -4 | 0.6 | 0.72 | i | -19 | 0
> Cc1ccc(S(=O)(=O)NC(CC(=O)NC2CCCC2)c2ccco2)cc1 (stereo not drawn)
    1.1 | -1.9 | / | / | / | 0.8 | / | -1 | -4
> CC1CC(C)CN(S(=O)(=O)c2ccc3c(c2)CC(=O)N3)C1 (stereo not drawn)
    0.1 | 0.6 | -1 | -2 | 1.9 | 0.72 | i | -1 | 9
> CC(C)(Oc1ccc(Cl)cc1)C(=O)N1CCN(c2ccccn2)CC1
    -1.3 | -1.5 | / | / | / | 0.73 | / | 8 | -16
> O=C(Nc1ccc(Cl)cc1)c1ccc2c(c1)S(=O)(=O)c1ccccc1C2=O
    -3.2 | 28* | 0 | 4 | 0.3 | 0.66 | i | / | 2
> CC(C)c1ccc(C=NNc2ccc([N+](=O)[O-])cn2)cc1
    2.5 | -12 | -3 | 4 | 5.0 | 0.65 | i | / | 16
> Cn1ncc2c(Nc3ccc4ccccc4c3)ncnc21
    -8.6 | -3.4 | -23 | -30 | -12 | 0.65 | i | -32 | -10

Single values from the results shown.
ALR inh result of Cc1ccc(S(=O)(=O)NC(CC(=O)NC2CCCC2)c2ccco2)cc1 (stereo not drawn) : -1
ALR inh result of CC1CC(C)CN(S(=O)(=O)c2ccc3c(c2)CC(=O)N3)C1 (stereo not drawn) : -1

Only part of the results is shown; rates above refer to the full screens.
